# T cruzi repl: T. cruzi replication inhibition | T. cruzi beta-gal in NIH3T3, luminescence, 90 h | inhibition, % (test concentration not listed) | 300,000 tested, 1.4% active;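 active = mean inhibition across valid replicates above about 55%, limit read from the data; inconclusive = mean below that limit but half or more replicates reach it; inactive = mean below it, under half of replicates reach it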;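 also: signal also drops with host cell toxicity which is not excluded here; 0% = plate median of DMSO wells and 100% = zero luminescence signal; higher percent means less beta-gal luminescence so fewer parasites; stock transfer was 50 nL into about 50 µL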
# RanGTP-Impb inh: disruptors of Ran-importin-beta complex formation – biochemical, FRET, CFP-Ran, YFP-importin-beta, homogeneous, primary screen. cell-free CFP-Ran/YFP-importin-beta FRET ratio. inhibition, % (concentration not given with the values). 300,000 tested, 1.1% active;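 active = most replicates above 15%; inconclusive = exactly half above 15%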;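 also: 0% = DMSO wells and 100% = Ran loaded with GDP instead of GTP; wells of about 40 µL received 100 nL stock; the first replicate is given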
# Beta cell apopt: beta cell apoptosis inhibition; INS-1E cytokine-induced death, ATP luminescence, 48 h; percent of positive-control rescue, neutral wells zero; protection from apoptosis, % (concentration not given with the values); 300,000 tested, 0.8% active; AID 435005;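 active = all replicates at 75% or more, or half of them and the mean; inconclusive = half reach 75% but not the mean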;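 also: 0% = cytokine-treated negative control wells and 100% = positive control rescue; higher means more ATP so stronger rescue from cytokine killing; wells of about 40 µL received 100 nL stock; the first replicate is given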
# Ecoli rRNA inh: inhibitors of bacterial rRNA selective over humanized ribosomes. E. coli WT GFP vs humanized-ribosome RFP mutants, fluorescence, 24 h; hits give low values; DMSO median 0, no signal -100. GFP signal change (wild-type ribosome), % (test concentration not listed). 350,000 tested, 1.6% active. AID 720706;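 active = significant combined selectivity score with lowered wild-type GFP, culture density cut under 30%, mutant RFP and density less affected; inactive = any of these conditions unmet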; also: one replicate is shown; some compounds called inactive have numbers as strong as hits
# ALR inh: blocks human ALR sulfhydryl oxidase activity; purified ALR, DTT oxidation, H2O2 HRP-luminol luminescence; inhibition, % (concentration not given with the values); 290,000 tested, 3.8% active;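 active = mean and each replicate at 75% or more; inconclusive = only one of the two met; inactive = neither met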;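 also: stock transfer was 7.5 nL into about 7.5 µL; 0% = neutral wells and 100% = wells with inactivated enzyme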
# Target sequence (P55789 whole entry, looked up): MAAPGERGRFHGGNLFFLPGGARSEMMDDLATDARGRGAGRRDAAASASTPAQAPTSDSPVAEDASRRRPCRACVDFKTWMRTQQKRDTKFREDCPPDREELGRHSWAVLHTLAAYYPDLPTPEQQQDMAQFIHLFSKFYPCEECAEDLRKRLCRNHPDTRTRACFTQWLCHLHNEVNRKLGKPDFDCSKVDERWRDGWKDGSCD
# Calb FLC: affects C. albicans growth with fluconazole. growth inhibition, % (concentration not given with the values). 300,000 tested, 0.57% active. C. albicans CaCi-2 (fluconazole-resistant clinical isolate) + fluconazole, Alamar Blue growth, 48 h;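 active = most replicates above 75%; inconclusive = exactly half above 75%; inactive = most below 75%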;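 also: all wells also contain fluconazole at 8 µg/ml as a sub-toxic cotreatment; 0% = median of DMSO wells and 100% = median of geldanamycin control wells; wells of about 8 µL received 7.5 nL stock; the first replicate is given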
# FGF22 binding: binders of recombinant human FGF22 by thermal shift | Q9HCT0 | SYPRO orange fluorescence; percent of sucrose octasulfate shift, DMSO zero | calls only at 9.99 µM | 340,000 tested, 1.5% active | AID 651658;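 active = melting point raised past a set limit in the mean and every replicate; inconclusive = no clear call; three in four hits are not shown here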
# Target sequence (Q9HCT0 whole entry, looked up): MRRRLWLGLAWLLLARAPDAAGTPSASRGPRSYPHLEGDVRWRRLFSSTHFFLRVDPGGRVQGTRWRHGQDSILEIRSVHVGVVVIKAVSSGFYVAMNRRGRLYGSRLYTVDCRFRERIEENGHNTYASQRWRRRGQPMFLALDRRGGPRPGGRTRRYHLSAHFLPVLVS
# MLL AF4-AF9 inh: inhibitors of human MLL-AF4/AF9 interaction; AlphaScreen, biotin-AF4 peptide binding to FLAG-AF9; 350,000 tested, 0.47% active; inhibition, % at 10 µM;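 active = every replicate reaching a set inhibition limit, whatever the replicate mean, cut at about 25% in these data; inconclusive = mean inhibition reaches that limit but some replicates miss it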;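 also: 0% = plate neutral control median and 100% = total signal loss; the record names both 10 and 1 µM as test concentration; the first replicate is given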
# Target sequence (P42568 whole entry, looked up): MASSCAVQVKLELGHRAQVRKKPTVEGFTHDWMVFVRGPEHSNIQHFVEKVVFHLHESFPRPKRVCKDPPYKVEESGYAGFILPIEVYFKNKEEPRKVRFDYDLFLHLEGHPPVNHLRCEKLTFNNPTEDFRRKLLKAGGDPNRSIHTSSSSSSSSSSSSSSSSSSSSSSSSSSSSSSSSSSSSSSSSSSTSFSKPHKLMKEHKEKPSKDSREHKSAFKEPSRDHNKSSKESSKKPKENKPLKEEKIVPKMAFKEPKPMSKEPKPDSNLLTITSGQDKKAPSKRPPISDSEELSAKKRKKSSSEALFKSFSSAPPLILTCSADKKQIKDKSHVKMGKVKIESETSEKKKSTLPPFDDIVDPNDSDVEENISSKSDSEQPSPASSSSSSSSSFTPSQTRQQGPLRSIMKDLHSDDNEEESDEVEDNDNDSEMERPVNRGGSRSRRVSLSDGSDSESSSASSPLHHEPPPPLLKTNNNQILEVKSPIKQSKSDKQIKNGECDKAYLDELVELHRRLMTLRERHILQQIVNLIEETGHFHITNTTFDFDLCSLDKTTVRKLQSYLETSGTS
# Ecoli rRNA inh OD600: also measured in Ecoli rRNA inh; calls as there; OD600 change, %; measured here: OD600 growth;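 optical density of the mix in the first replicate; 0 = DMSO median and -100 = no signal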
# Ecoli rRNA inh RFP: further read-out of Ecoli rRNA inh, marked with its call; RFP signal change, %; measured here: RFP humanized mutant strains;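 first replicate; 0 = DMSO median and -100 = no signal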
# Active calls of the source: *; i = inactive; ? = inconclusive; · = not tested or not shown; + = active, no number. Some of the compounds tested (hit frequency here may not be typical).
# Below each compound: T cruzi repl, FGF22 binding, MLL AF4-AF9 inh, Beta cell apopt, ALR inh, Ecoli rRNA inh, Ecoli rRNA inh OD600, Ecoli rRNA inh RFP, Calb FLC, RanGTP-Impb inh
CC(C)CN(CC(C)C)S(=O)(=O)N1CCC(C(=O)NCc2ccc3c(c2)OCO3)CC1
  -3, i, -3.0, 7, 5, -3, 0, -4.4, -62, 1.4
COc1ccc(C(=O)c2oc3ccc(OC)cc3c2NC(C)=O)cc1
  6, i, 1.4, -5, ·, 5, 9, -1.2, ?, 1.4
CN1C(=O)[C@H]2[C@@H](/C=C/c3ccccc3)N3C(=O)CN(CCO)C(=O)[C@@]3(C)[C@H]2C1=O
  -13, i, -7.2, -3, 2, ·, ·, ·, 14, -0.6
CCOC(=O)CCNC(=O)N1CCCC(CNS(=O)(=O)Cc2ccccc2)C1 (stereo not drawn)
  -2, i, -1.4, 1, -13, 21, 16, 4.3, -3, 2.2
O=C(NCCCO)c1cc2c(cn1)[nH]c1ccccc12
  -3, i, -2.3, 7, -27, 1, -2, -0.5, 3, 3.1
c1ccc(-c2nc3nc4ccccc4nc3n2CC2CCCO2)cc1 (stereo not drawn)
  -1, i, 2.3, 4, ·, -4, 9, 7.0, 2, 2.4
CCc1cc2c(SCC(=O)N(CC)c3c(N)n(Cc4ccccc4)c(=O)[nH]c3=O)ncnc2s1
  -6, i, -2.7, ·, -7, 13, 11, 3.2, -22, 1.3
CC(=O)CCC(=O)OCC(=O)c1ccc(C(F)(F)F)cc1
  -9, i, -11, -6, -6, 9, 18, 1.4, -2, -2.7
Cc1noc(C)c1CSc1nc2ccccc2c(=O)n1-c1ccc(Cl)cc1
  49, ·, ·, 13, 14, ·, ·, ·, -16, -6.6
Cc1ccc(S(=O)(=O)N2CCC(C(=O)N[C@@H](C)C(=O)NCc3ccccc3)CC2)cc1
  -14, ·, ·, ·, -5, ·, ·, ·, -7, 2.0
COc1cccc(NC(=O)c2ccc3c(c2)OCCO3)c1
  -8, i, -1.1, ·, ·, -4, 1, 0.2, -10, 1.5
CCCCn1ccnc1C(=O)c1ccc(S(=O)(=O)N(CCOC)CCOC)cc1
  5, ·, ·, 0, -2, ·, ·, ·, -6, 0.9
N/C(=N/OC(=O)c1ccccc1Cl)c1nonc1N
  -6, i, -1.1, ·, -2, -23*, -8.1*, -2.4*, -16, -0.6
COc1cc(CC(NC(C)=O)C(=O)NC2CCN(C(=O)Nc3ccccc3Cl)CC2)cc(OC)c1 (stereo not drawn)
  1, i, -1.1, -1, -4, 6, -4, -7.9, 10, 4.3
O=C(Nc1ccc(Cl)c(C(F)(F)F)c1)[C@@H]1CC=C[C@@H]2CCN(C3CC3)C(=O)[C@@H]21
  -26, i, -7.0, 5, ·, 1, -2, -0.4, 31, 5.0
O=C(O)CCN1CCc2ccccc2C1c1cccs1 (stereo not drawn)
  -11, i, -8.6, 3, -3, 7, 5, 1.7, -6, -2.8
COc1ccc(N(CC(=O)NCCSc2ccccc2)S(=O)(=O)c2ccccc2)c(OC)c1
  ·, i, 0.8, 0, ·, 5, -14, 32, ·, ·
c1ccc(Nc2nc(N3CCCCC3)nc(N3CCCCC3)n2)cc1
  38, ·, ·, 13, 0, ·, ·, ·, 2, -1.7
CC(C)CCNC(=O)c1onc(CSc2ccncc2)c1C(=O)NCCC(C)C
  6, +, -1.6, 5, 0, 4, -1, 1.5, -6, ?
CN1C(=O)[C@H]2[C@@H](C3CC3)N3C(=O)CN(CC4CC4)C(=O)[C@@]3(C)[C@H]2C1=O
  -20, i, -1.0, ·, 2, 10, 18, 14, 12, 5.7
COC(=O)c1ccc2c(=O)n(-c3ccc(OC)cc3)c(=S)[nH]c2c1
  4, i, -2.2, -4, -2, 6, 2, -0.9, 6, 0.8
O=C(N1CCOCC1)N1CCN(c2ccccn2)CC1
  -5, ·, ·, -3, 3, ·, ·, ·, 26, 2.7
CN(C)CCCN(Cc1ccccc1)C(=S)Nc1ccc(SC(F)F)cc1
  -5, ·, 5.4, -2, -3, -31, -59, 29, 2, 3.7
CCc1c(C)n([O-])c2c([n+]1=O)CCC2
  -4, ·, ·, ·, -2, ·, ·, ·, -17, -0.6
O=C(Nc1ccccc1N1CCCCC1)c1ccc(Cl)c([N+](=O)[O-])c1
  -4, ·, 3.1, 1, -5, 9, 7, -0.5, 27, 2.9
COc1cccc(C(C(=O)NC2CCCC2)N(Cc2ccc(C)cc2)C(=O)c2ccco2)c1OC (stereo not drawn)
  2, ·, ·, 0, 5, ·, ·, ·, 3, 1.7
COc1ccc([C@H]2CC(=O)C=C(c3c(OC)cccc3OC)C2)cc1
  ·, i, 7.8, 14, -1, -21, -35, -13, ·, ·
COc1ccc(Cl)cc1N1C(=O)C2CCCN2C1c1sccc1C (stereo not drawn)
  -1, ·, ·, -3, -2, ·, ·, ·, -12, 0.4
O=C(CCNS(=O)(=O)c1ccccc1C(F)(F)F)N1CCN(c2ccccc2O)CC1
  0, i, -1.2, 4, 99*, -3, -2, 2.0, 0, 5.9
COc1ccc(C(=O)Nc2cccc(C(C)=O)c2)cc1S(=O)(=O)N1CCOCC1
  5, ·, ·, -4, -4, ·, ·, ·, ·, ?
CCn1c(SCC(=O)Nc2ccc3c(c2)OCO3)nc2c(c1=O)SC(C)C2 (stereo not drawn)
  17, i, -0.7, -7, 21, -11, -17, -1.7, -8, 1.8
O=C(CSc1ccc(S(=O)(=O)N2CCCCC2)cn1)Nc1ccccc1Br
  ·, i, -1.9, -6, -16, 14, 10, 0.5, ·, ·
Cc1cc(=O)oc(C)c1C(=O)Nc1c(C)n(C)n(-c2ccccc2)c1=O
  -5, ·, ·, -5, -26, ·, ·, ·, 15, 0.6
O=c1nc2ccccc2c(NS(=O)(=O)c2ccc(Cl)cc2)n1-c1ccccc1
  -3, ·, ·, 6, 1, ·, ·, ·, 1, -3.9
Cc1c(C(=O)O/N=C(\N)c2ccccn2)cccc1[N+](=O)[O-]
  -2, i, 0.4, 11, ·, -15, -3, 0.8, -1, ?
Cc1ccc(-n2c(C)cc(C)c(C#N)c2=O)cc1C
  -18, i, -0.5, -2, -9, 11, 16, 1.6, 6, ?
CC(=O)Nc1ccc(S(=O)(=O)NCC(=O)OCc2ccccc2)cc1
  -5, i, 9.2, -2, 0, 12, 7, 3.1, 48, 5.4
Clc1ccc(Cn2c(CN3CCCC3)nc3ccccc32)cc1
  -6, ·, ·, 9, 2, ·, ·, ·, ·, -2.9
COc1ccccc1C1(O)C(=O)Nc2ccc(C)cc21 (stereo not drawn)
  -11, i, -2.7, ·, 1, 11, 12, -7.3, -1, 1.6
CC1CN(C(=O)COC(=O)c2ccc(Cl)nc2)CC(C)O1 (stereo not drawn)
  -8, i, -11, -1, 91*, 5, 12, -3.4, 0, 5.4
CCOc1ccc(C(=O)NCCn2cc(SCC(=O)Nc3cc(C)on3)c3ccccc32)cc1
  -9, ·, ·, 6, ?, ·, ·, ·, 3, 2.3
CC1(C)CC(CCNC(=O)CCl)(c2ccccc2)CCO1 (stereo not drawn)
  13, i, -6.6, 2, ·, 8, 10, 9.4, -4, 1.7
O=[N+]([O-])c1cccc(S(=O)(=O)c2ccc(N3CCCCC3)c([N+](=O)[O-])c2)c1
  32, i, 14, 8, 0, 5, -1, -14, 8, 2.7
Cn1c(CNC(=O)OC(C)(C)C)nnc1SCC(=O)N1CCOCC1
  -6, i, -1.9, ·, -7, 22, -2, 0.8, 2, 1.4
Cn1c(SCC(=O)Nc2sccc2C(N)=O)nnc1-c1ccncc1
  -1, i, -6.9, -2, 17, 1, -2, -5.6, -13, 4.3
CCC(C)NC(=O)c1ccc(N2CCC3(CC2)OCCO3)c([N+](=O)[O-])c1 (stereo not drawn)
  -5, ·, ·, ·, -6, ·, ·, ·, 31, 2.8
COc1ccc(-c2csc(NC(=S)NC(=O)/C=C/c3ccc(C(C)C)cc3)n2)cc1OC
  34, i, 5.6, ·, -4, 14, 21, -1.9, 15, -0.9
O=C(CN1CCN(c2ccc(O)cc2)CC1)NC1CCCc2ccccc21 (stereo not drawn)
  4, i, -14, -4, 4, 3, 13, 0.6, -24, -2.9
COc1ccc2nc3n(c(=O)c2c1)-c1ccccc1C(=O)NC3Cc1ccccc1 (stereo not drawn)
  ·, i, 3.7, -3, 2, 7, 10, 11, ·, ·
CC1CN(CC(O)COc2ccccc2C(C)(C)C)CC(C)O1 (stereo not drawn)
  -8, ·, ·, -1, -10, ·, ·, ·, ·, 1.0
N#C/C(Cn1c[n+](NC(=O)Nc2ccccc2)cn1)=N/O
  -9, ·, ·, 1, -12, ·, ·, ·, -2, 2.2
O=C(NNS(=O)(=O)c1ccccc1C(F)(F)F)c1cccc(S(=O)(=O)Nc2ccccc2Cl)c1
  -9, ·, ·, -7, 28, ·, ·, ·, -4, 0.1
O=C(NCCCn1ccnc1)c1nc(Cn2ccc([N+](=O)[O-])n2)no1
  -6, i, -0.4, 3, -2, 6, 26, -2.1, 1, -4.3
COc1ccc(NC(=O)c2cn(C)c(=O)c3cc(OC)c(OC)cc23)cc1OC
  0, i, -0.8, 3, -11, 9, 7, 5.0, 6, -0.6
CCN1c2ccccc2NC2N=C(OC)C(c3ccccc3)C21 (stereo not drawn)
  -14, ·, ·, 111*, 99*, ·, ·, ·, 6, -0.8
N/C(COc1ncn(-c2ccccc2)n1)=N\S(=O)(=O)c1ccccc1
  -2, i, 1.5, -3, -3, -5, 0, -2.3, 21, 0.2
COc1ccc(OC)c(NC(=O)c2ccc(NS(C)(=O)=O)cc2)c1
  -18, ·, ·, -1, -15, ·, ·, ·, -2, 7.0
NC(=O)c1nn(-c2ccccc2)nc1NC(=O)CN1CCCCC1
  -6, ·, ·, -2, -5, ·, ·, ·, -27, -2.1
COc1cccc(C2C(C(=O)c3ccc(C)o3)=C(O)C(=O)N2CCN2CCOCC2)c1 (stereo not drawn)
  -2, i, -2.1, -4, -7, 3, 5, -0.4, 57, 2.8
Cc1cc(C)n(CCCNC(=O)Cn2nnnc2CN2C[C@@H](C)O[C@@H](C)C2)n1
  -11, i, 1.3, -2, 8, 14, 11, 4.2, 2, 0.7

# Part of the list above in order of molar mass, ascending:
# Below each compound: T cruzi repl, FGF22 binding, MLL AF4-AF9 inh, Beta cell apopt, ALR inh, Ecoli rRNA inh, Ecoli rRNA inh OD600, Ecoli rRNA inh RFP, Calb FLC, RanGTP-Impb inh
N#C/C(Cn1c[n+](NC(=O)Nc2ccccc2)cn1)=N/O
  -9, ·, ·, 1, -12, ·, ·, ·, -2, 2.2
CCN1c2ccccc2NC2N=C(OC)C(c3ccccc3)C21 (stereo not drawn)
  -14, ·, ·, 111*, 99*, ·, ·, ·, 6, -0.8
O=C(CN1CCN(c2ccc(O)cc2)CC1)NC1CCCc2ccccc21 (stereo not drawn)
  4, i, -14, -4, 4, 3, 13, 0.6, -24, -2.9
O=[N+]([O-])c1cccc(S(=O)(=O)c2ccc(N3CCCCC3)c([N+](=O)[O-])c2)c1
  32, i, 14, 8, 0, 5, -1, -14, 8, 2.7
COc1ccc(-c2csc(NC(=S)NC(=O)/C=C/c3ccc(C(C)C)cc3)n2)cc1OC
  34, i, 5.6, ·, -4, 14, 21, -1.9, 15, -0.9

# Compound activity as filed in PubChem BioAssay.
